Hsc70 ATP site – small molecules displacing fluorescent ligand from Hsc70 – biochemical, fluorescence polarization, primary screen (AID 568); 83,000 tested, under 10 active; Hsc70 fluorescence polarization, probe displacement; higher % means a stronger effect; strong numbers were not always called active; displacement, % at 20 µM, or IC50 in µM where a hit was titrated;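 active = displacement above 50% without optical interference and an IC50 on retest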;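 note: ATPase domain with a fluorescein-tagged ATP probe; 0% = vehicle and 100% = excess ADP; read after one hour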
WNV NS2B-NS3 inh – WNV NS2B-NS3 proteinase inhibition. z-score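 (tested at a level between 10 and 100 µM)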. P06935. WNV NS2B-NS3 protease, fluorogenic substrate Ex360/Em465; stronger effect = lower value. AID 577. hit rate 0.18% among 65,000;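 active = z-score at -3 or under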;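 note: score is relative to mean and spread of the compound wells of a plate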
Target sequence (P06935 1371-1501 limits assumed): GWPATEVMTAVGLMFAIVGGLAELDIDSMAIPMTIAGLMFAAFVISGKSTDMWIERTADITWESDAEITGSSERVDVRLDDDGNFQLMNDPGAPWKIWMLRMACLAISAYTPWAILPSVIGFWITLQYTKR
Target sequence (P06935 1502-1679 limits assumed): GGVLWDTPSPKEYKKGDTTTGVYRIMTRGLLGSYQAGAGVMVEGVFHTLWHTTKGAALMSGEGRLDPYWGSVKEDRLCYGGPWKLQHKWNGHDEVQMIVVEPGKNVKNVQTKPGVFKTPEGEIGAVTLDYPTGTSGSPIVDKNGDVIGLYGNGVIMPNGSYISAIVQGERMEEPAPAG
MT1-MMP reporter – inhibitors of MT1-MMP promoter transcription, cell-based, luciferase reporter, luminescence (AID 618). hit rate 0.62% among 87,000. MT1-MMP promoter luciferase reporter cells, luminescence. calls from a first round at 10 µM; hits with a dose series show EC50 in µM;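 active = over half of the reporter light lost at 10 µM or EC50 under 50 µM; inactive = the rest and hits that failed the dose series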;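 note: actives suppress MT1-MMP promoter-driven transcription so potencies describe inhibitors; HT1080 fibrosarcoma cells; overnight exposure; toxic or luciferase-blocking compounds were not removed from the actives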
* = called active by the depositor; i = inactive; · = not tested or not shown.

Fields – Hsc70 ATP site | WNV NS2B-NS3 inh | MT1-MMP reporter
- Cc1ccc(-n2nc(-c3cccs3)cc2C(=O)NCC2CCCO2)c(C)c1 (stereo unspecified)
→ 0.4% | 0.32 | i
- O=C(COc1ccc(Cl)cc1)Nc1ccccc1CO
→ 4.1% | 1.6 | i
- CCN(CC)C(=O)CSc1nc2cccnc2n1-c1ccccc1OC
→ 4.1% | -0.4 | i
- CN(C)CC(=O)c1c[nH]c2ccccc12
→ 1.6% | · | i
- O=C(NC1=NCCS1)C1Cc2ccccc2CN1C(=O)c1ccccc1 (stereo unspecified)
→ -1.3% | -0.89 | i
- CCn1c(SCC(=O)Nc2cc(C)ccc2C)nc2c(c1=O)SC(C)C2 (stereo unspecified)
→ -2.3% | -0.25 | i
- CCSc1nc(C)cc(Oc2ccc(=O)n(C)n2)n1
→ -8.5% | 1 | i
- Oc1ccccc1C1=Nc2ccccc2N=C(c2ccco2)C1
→ -5.7% | -0.16 | i
- COC(=O)c1[nH]c2ccccc2c1NC(=O)CN1CCN(c2cccc(OC)c2)C(C)C1 (stereo unspecified)
→ 0.9% | -0.99 | i
- Cn1c(=O)c(C(=O)Nc2cnccn2)c(O)c2ccccc21
→ -2.1% | 1.1 | i
- CC(=O)N1CCN(c2ccccc2NC(=O)COc2ccc(Cl)cc2Cl)CC1
→ 2.2% | 2.2 | i
- Cc1cc2c(cc(C(=O)OC(C(=O)NCc3ccco3)C(C)C)n2C)o1 (stereo unspecified)
→ -0.9% | -0.5 | i
- CCOc1ccccc1CNc1ccc(N2CCOCC2)c(C(=O)O)c1
→ -6.4% | 2.3 | i
- CCSc1nnc(Nc2ccccc2)s1
→ -0.6% | -1 | i
- O=C(CC1(C(F)(F)F)OCCO1)Nc1ccc2c(c1)OCO2
→ 4.1% | -0.0077 | i
- Cc1cnc(Sc2ncccc2[N+](=O)[O-])nc1
→ 1.7% | · | i
- Cn1c(CCNC(=O)c2ccco2)nc2cc(NC(=O)C3CCCCC3)ccc21
→ 1.1% | 0.11 | i
- CC1CCc2c(nc3ncnn3c2N2CC(C)OC(C)C2)C1 (stereo unspecified)
→ -1.4% | 0.62 | i
- CC1(C)CC(=O)C(C=Nc2ccccc2)=C(O)C1
→ 6.8% | -0.86 | i
- CCC(=O)Nc1ccc(NC(=O)c2ccco2)cc1
→ -1.3% | 1.4 | i
- C=CCn1c(=O)c2ccccc2n2c(SCC(=O)/C(C#N)=C(\C)N)nnc12
→ 1.8% | -0.08 | i
- COC(=O)C1=C(N)Oc2cc(C)oc(=O)c2C1c1ccncc1 (stereo unspecified)
→ -5.6% | 0.47 | i
- Cc1cc(NC(=O)c2ccc(NC(=O)c3cccs3)cc2)no1
→ 63% | 0.18 | i
- CC(=O)OCC(OC(C)=O)C(OC(C)=O)C(OC(C)=O)C(=O)Nc1ccc(C)cc1 (stereo unspecified)
→ 4.9% | 1.1 | i
- O=C(COc1ccc2ccccc2c1Br)Nn1cnnc1
→ -3.5% | 0.03 | i
- Cc1cccc(OCCn2c(CCCO)nc3ccccc32)c1
→ 5.9% | -1 | i
- Cc1nnc(SCC(=O)NCc2ccc3c(c2)OCO3)[nH]c1=O
→ -10% | -1.1 | i
- N#Cc1c(NC(=O)CSc2ncn(-c3ccccc3)n2)sc2c1CCCC2
→ 1.3% | 2.2 | i
- Cc1c(NC(=O)c2cc(-n3cnnc3)ccc2Cl)cccc1-c1nc2ccccc2o1
→ -0.3% | -0.47 | i
- O=C(CN1CCCCCC1)Nc1ccccc1F
→ 0.5% | · | i
- COC(=O)c1nc2n(n1)C(c1cccc(Cl)c1)C1=C(CCCC1=O)N2 (stereo unspecified)
→ -1.0% | -0.79 | i
- CCc1nc(Sc2nc(C)cc(C)n2)c2oc3ccccc3c2n1
→ 4.1% | 1.1 | i
- Cc1cc2c(cc1C)C(=O)NC(C)(C)C2
→ 3.2% | 0.35 | i
- Cc1nc(N2CCCC2)c2ccsc2n1
→ -8.4% | -0.03 | i
- COc1cc(NC(=O)Nc2ccccc2OC)c(OC)cc1NC(=O)CN1CCCCC1
→ -1.0% | 0.45 | i
- Oc1ccccc1/C=N/NC1=NCCCCC1
→ 7.4% | · | i
- COCCCNC(=O)CC(NS(=O)(=O)c1ccc(Cl)cc1)c1ccco1 (stereo unspecified)
→ 2.7% | -0.36 | i
- C=C(C)COc1ccc(-c2n[nH]c(C)c2-c2ccc(Br)cc2)c(O)c1
→ 0.8% | · | i
- CCOC(=O)c1ccc(NC(=O)CN(c2ccc(C)cc2)S(=O)(=O)c2c(C)nn(C)c2C)cc1
→ -1.4% | · | i
- CCOc1ccc(N2C(=O)CSC2c2ccncc2)cc1 (stereo unspecified)
→ -2.6% | -0.65 | i
- CCC(C)(C)c1ccc(OCCN2C(=O)NC(C)(C)C2=O)cc1
→ -1.6% | · | i
- Cc1ccccc1CSCC(=O)NC1CCCC1
→ -2.3% | · | i
- O=C(CCN1CCc2ccccc2C1)Nc1ccc(F)cc1
→ 5.3% | -0.7 | i
- COc1cccc(-n2c(SCC(N)=O)nnc2-c2ccncc2)c1
→ -0.6% | -1.3 | i
- Clc1ccc(Cl)c(-c2nn3c(Cn4cnc5ccccc54)nnc3s2)c1
→ -2.9% | -0.46 | i
- Nc1nonc1-n1nncc1-c1ccccc1
→ 0.7% | -0.77 | i
- CCc1cc2c(NCCN3CCCCC3)ncnc2s1
→ -1.3% | -1.3 | i
- Cc1ccc(-c2nnc3c4ccccc4c(C)nn23)cc1NC(=O)CN1CCOCC1
→ -1.1% | -0.61 | i
- COc1ccc(CNc2nc(NCc3ccc(OC)cc3)n(S(C)(=O)=O)n2)cc1
→ 7.2% | -0.78 | i
- COCC(=O)Nc1c(C(=O)Nc2ccccc2OC)oc2ccccc12
→ -4.6% | -0.45 | i
- O=C(Cn1cnc2c(nnn2Cc2ccccc2F)c1=O)N1CCN(c2ccccc2)CC1
→ -5.8% | -0.47 | i
- CC1CCCCC1NC(=O)COC(=O)c1ccccn1 (stereo unspecified)
→ -1.1% | · | i
- CCCCCC(=O)Nc1ccc2oc(-c3ccncc3)nc2c1
→ -19% | 0.25 | i
- CC(=O)NCCc1nc2ccccc2[nH]1
→ 2.6% | 0.79 | i
- CCCc1nc2n[nH]c(N)c2c2c1CCC2
→ 6.8% | -1.6 | i
- CCS(=O)(=O)N1CCC(C(=O)NCCc2ccc(OC)c(OC)c2)CC1
→ -1.9% | 0.45 | i
- OC(CCN1CCOCC1)(c1ccc(Cl)cc1)C1CCCCC1 (stereo unspecified)
→ -2.6% | -0.85 | i
- O=C1CCCC2=C1C(c1cccs1)n1nc(SCc3ccccc3F)nc1N2 (stereo unspecified)
→ -0.2% | 0.82 | i
- C=CCSc1nc2c(c(=O)n(C)c(=O)n2C)n1CC
→ -1.1% | -0.02 | i
- CCn1nnnc1SCC(=O)N(C1CCCCC1)C1CCCCC1
→ -0.7% | -0.55 | i

A draw from above in order of SMILES length, high to low.
Fields – Hsc70 ATP site | WNV NS2B-NS3 inh | MT1-MMP reporter
- Cc1cnc(Sc2ncccc2[N+](=O)[O-])nc1
→ 1.7% | · | i
- CCC(=O)Nc1ccc(NC(=O)c2ccco2)cc1
→ -1.3% | 1.4 | i
- Cc1nc(N2CCCC2)c2ccsc2n1
→ -8.4% | -0.03 | i

Additional results.
Fields – Hsc70 ATP site | WNV NS2B-NS3 inh | MT1-MMP reporter
- CC(=O)OCc1cc2cc(C)ccc2[nH]c1=O
→ -12% | 1.6 | i
- Cn1c(=N)n(CC(O)c2cccc3ccccc23)c2ccccc21 (stereo unspecified)
→ -15% | 1.2 | i
- O=C(Nc1ccc(SC(F)F)cc1)c1cccc2nc3ccccc3nc12
→ 1.6% | · | i
- O=C(CN1CCOCC1)N1CCN(S(=O)(=O)c2ccccc2)C1c1ccccc1 (stereo unspecified)
→ -4.0% | -0.83 | i
- C=CCn1c(CC#N)nnc1N1CCOCC1
→ 5.2% | -0.11 | i
- CCOc1ccccc1N(CC(=O)N1CCOCC1)S(=O)(=O)c1ccc(SC)cc1
→ 0.3% | -0.89 | i
- CCc1cc(=O)oc2cc(OC(C)C(=O)O)c(Cl)cc12 (stereo unspecified)
→ -7.1% | 1.9 | i
- CCSc1oc(-c2ccco2)nc1S(=O)(=O)c1ccccc1
→ 5.6% | 1.3 | i
- O=C(CN(Cc1ccccc1F)C(=O)c1ccco1)NCc1ccc(F)cc1
→ 3.1% | 0.94 | i
- Cc1cccc(-n2c(N)cc(=O)nc2SCC(=O)Nc2cc(C)on2)c1
→ -8.1% | -1.1 | i
- CC(=O)NC(CCS(C)(=O)=O)C(=O)Nc1cc(C)ccc1C (stereo unspecified)
→ 2.8% | -0.64 | i
- COCCn1c(SCC(=O)c2ccc(Cl)cc2)nnc1C(C)C
→ 6.3% | -1.3 | i
- CCCc1cc(O)c2c(C)cc(=O)oc2c1
→ 5.5% | · | i
- N#Cc1ccccc1NC(=O)c1ccccc1OCC(=O)Nc1ccc2c(c1)oc1ccccc12
→ -3.0% | -0.67 | i
- CCOc1ccc(CNc2ccc(N3CCCC3)cc2)cc1
→ -2.8% | 0.48 | i
- CCC(C)(C)n1nnnc1C(c1cc2ccc(OC)cc2[nH]c1=O)N1CCN(C2CCCCC2)CC1 (stereo unspecified)
→ -2.0% | -0.7 | i
- CCCc1cc(-c2n[nH]c(C(=O)OCC)c2-c2cscn2)c(O)cc1O
→ 0.8% | · | i
- C=CCn1c(SCCC(=O)O)nnc1-c1cccs1
→ 3.0% | -0.36 | i
- Cc1cc(C(=O)CSc2nnc(N)s2)c(C)n1CCc1ccc(F)cc1
→ -0.1% | -0.5 | i
- CCOC(=O)N1CCN(C(=O)c2ccc(CS(=O)(=O)c3ccccc3OC)o2)CC1
→ 1.4% | 0.55 | i
- Cn1c(Cn2nnc3ccccc32)nnc1SCC(N)=O
→ -3.2% | -0.49 | i
- CCCCNC(=O)c1ccc(NC(=O)C2CCCO2)cc1 (stereo unspecified)
→ 2.8% | 0.01 | i
- O=C(/C=C\Nc1ccccn1)c1ccc(Cl)cc1
→ -0.8% | -0.62 | 1.2µM*
- COc1ccccc1-c1c(C)oc2c(CN3CCN(CCO)CC3)c(O)ccc2c1=O
→ -1.0% | -1.1 | i
- Cc1ccc(C)c(NC(=O)C2CCC(C)(C(=O)O)C2(C)C)c1 (stereo unspecified)
→ 0.8% | 1.1 | i
- CSC1=N/C(=C\c2cccc(F)c2)C(=O)S1
→ 1.6% | · | i
- O=C(CSc1nnc(Cn2c(=O)sc3ccccc32)n1CCc1ccccc1)N1CCOCC1
→ -3.3% | -0.4 | i
- CCN(CC)S(=O)(=O)c1ccc(C(=O)OCCN2C(=O)CCC2=O)cc1
→ 4.4% | -0.12 | i
- CCc1ccc(N(CC(=O)NC2CCCC2)S(=O)(=O)c2c(C)noc2C)cc1
→ 5.9% | 0.01 | i
- Oc1ccccc1N=Cc1ccc[nH]1
→ -2.7% | -1.4 | i
- CCOC(=O)Nc1cc(C(=O)OC)cc(C(=O)OC)c1
→ -9.6% | 0.07 | i
- COc1cc(C)c(C(C)C)cc1S(=O)(=O)n1ccnc1
→ 3.5% | · | i
- COC(=O)c1cc(-c2ccccc2)sc1NC(=O)c1cc(C)on1
→ -9.7% | 1.8 | i
- C=CCn1c(SCC(=O)NC(=O)NCC(C)C)nnc1C1CCCCC1
→ 0.5% | 1.9 | i
- CCOC(=O)c1ccc(NC(=O)CCNS(=O)(=O)c2ccc3c(c2)oc(=O)n3C)cc1
→ 2.8% | 0.5 | i
- COc1ccccc1-c1nc2n(n1)C(c1cccs1)C(C(=O)Nc1cccnc1)=C(C)N2 (stereo unspecified)
→ 2.8% | -0.19 | i
- CCCn1c(=O)c2ccccc2n2c(SCCOc3ccc(OC)cc3)nnc12
→ -0.7% | 1.3 | i
- CCOC(=O)c1nnn(-c2ccc(OC)cc2)c1N
→ -3.2% | · | i
- CC(Cc1ccccc1)NC(=O)CSc1nc2nc3c(cc2c(=O)n1-c1ccccc1)COC(C)(C)C3 (stereo unspecified)
→ 1.6% | · | i
- CC(C)(C)c1cc(C(F)(F)F)nc(SCCCNC(=O)c2ccco2)n1
→ 6.2% | 0.47 | i

Record cards, from the list above. Screens in order: Hsc70 ATP site | WNV NS2B-NS3 inh | MT1-MMP reporter
Results for COc1cccc(-n2c(SCC(N)=O)nnc2-c2ccncc2)c1 → -0.6% | -1.3 | i
Results for O=C(CSc1nnc(Cn2c(=O)sc3ccccc32)n1CCc1ccccc1)N1CCOCC1 → -3.3% | -0.4 | i

More structures follow:
Fields – Hsc70 ATP site | WNV NS2B-NS3 inh | MT1-MMP reporter
- O=C(O)C1CC=CCC1C(=O)N1CCN(c2nc(-c3ccccc3Cl)c3cc(Br)ccc3n2)CC1 (stereo unspecified)
→ 1.1% | · | i
- CCC(C)Oc1cccc(C(=O)Nc2ccccc2N2CCOCC2)c1 (stereo unspecified)
→ 0.5% | -0.49 | i
- CC(=O)Cn1cnc2sc(-c3ccccc3)cc2c1=O
→ 1.3% | · | i
- O=C1CC(c2nc3ccccc3[nH]2)CN1c1cccc(C(F)(F)F)c1 (stereo unspecified)
→ 2.9% | 1.2 | i
- Cc1cc(N2CCC(N(C)C3CCCC3)CC2)nc2cc(O)ccc12
→ 2.3% | 1.1 | i
- c1cncc(-c2nn3c(Cn4cnc5ccccc54)nnc3s2)c1
→ -1.9% | 0.37 | i
- O=C(Nc1ccc2c(c1)nc1n2CCSC1)c1ccco1
→ -3.5% | 1.6 | i
- CCN(CC)C(=O)C1CCCN(c2ncnc3c2cnn3-c2ccc(Cl)cc2)C1 (stereo unspecified)
→ 3.7% | -0.65 | i
- CCC1CCCCN1C(=O)CSc1nnc(-c2cccs2)o1 (stereo unspecified)
→ 2.2% | -0.23 | i
- COc1nc(Nc2ccc(O)cc2)nc(OC(C(F)(F)F)C(F)(F)F)n1
→ -4.2% | -0.33 | i
